MT1-MMP reporter – inhibitors of MT1-MMP promoter transcription, cell-based, luciferase reporter, luminescence (AID 618). MT1-MMP promoter luciferase reporter cells, luminescence. calls from a first round at 10 µM; hits with a dose series show EC50 in µM. 87,000 tested, 0.62% active;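 active means over half of the reporter light lost at 10 µM or EC50 under 50 µM; inactive means the rest and hits that failed the dose series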;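 further: actives suppress MT1-MMP promoter-driven transcription so potencies describe inhibitors; HT1080 fibrosarcoma cells; overnight exposure; toxic or luciferase-blocking compounds were not removed from the actives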
WNV NS2B-NS3 inh – inhibitors of WNV NS2B-NS3 protease, primary screen, biochemical, fluorogenic substrate | Genome polyprotein (West Nile virus), P06935 | fluorogenic substrate Ex360/Em465; active compounds read low | z-score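 (tested at a level between 10 and 100 µM)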 | 65,000 tested, 0.18% active | AID 577, 2007;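 active means z-score at -3 or under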;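 further: score is relative to mean and spread of the compound wells of a plate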
Target sequence (P06935 1371-1501 limits assumed): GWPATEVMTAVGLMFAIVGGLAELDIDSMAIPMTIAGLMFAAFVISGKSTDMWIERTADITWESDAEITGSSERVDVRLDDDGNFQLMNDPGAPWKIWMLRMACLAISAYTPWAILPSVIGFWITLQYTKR
Target sequence (P06935 1502-1679 limits assumed): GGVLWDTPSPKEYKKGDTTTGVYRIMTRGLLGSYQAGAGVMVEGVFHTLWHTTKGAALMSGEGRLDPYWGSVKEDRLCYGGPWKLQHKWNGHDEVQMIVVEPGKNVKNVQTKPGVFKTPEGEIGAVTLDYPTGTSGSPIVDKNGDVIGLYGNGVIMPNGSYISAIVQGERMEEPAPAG
Hsc70 – Hsc70 inhibitors, probe displacement, primary screen, biochemical, fluorescence polarization (AID 568) | Heat shock cognate 71 kDa protein (Homo sapiens) | Hsc70 fluorescence polarization, probe displacement; higher % means a stronger effect; strong numbers were not always called active | displacement, % at 20 µM, or IC50 in µM where a hit was titrated | 83,000 tested, under 10 active;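 active means displacement above 50% without optical interference and an IC50 on retest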;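 further: ATPase domain with a fluorescein-tagged ATP probe; 0% = vehicle and 100% = excess ADP; read after one hour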
The depositor's hits bear a star; i = inactive; · = no result given; + = active, no number. The list is partial, so the mix of outcomes need not match the whole.

SMILES	MT1-MMP reporter	WNV NS2B-NS3 inh	Hsc70
CC(Sc1nc(-c2ccccc2)cc(C(F)(F)F)n1)C(=O)NCc1ccco1 (stereo unspecified)	i	·	-2.4%
CCn1nc(C(=O)OC2CCOC2=O)c2ccccc2c1=O (stereo unspecified)	i	0.26	-5.6%
O=C(CN1CCOCC1)NCC12CC3CC(CC(C3)C1)C2	i	-0.91	2.6%
CC(C)(C)n1[nH]c2c3c(ccc2c1=O)C(=O)c1ccccc1C3=O	i	·	1.6%
O=C(Cn1cnc2c(cnn2-c2ccc(F)cc2)c1=O)N1CCN(c2ccccc2F)CC1	i	-0.93	-19%
O=C(c1ccc2c(c1)OCO2)N1CCN=C1SCc1cccnc1	i	-0.0029	-2.9%
Cc1ccc(N(CC(N)=O)C2SC(=O)N(Cc3ccccc3)C2=O)cc1 (stereo unspecified)	i	0.0023	-2.2%
CC1CCCCN1S(=O)(=O)c1ccc(NC(=O)c2ccco2)cc1 (stereo unspecified)	i	·	-0.7%
CCOC(=O)c1sc2ncn(/N=C/N(C)C)c(=O)c2c1C	i	-0.72	-1.7%
CCOc1ccc2nc(NC(NC(C)=O)(C(=O)OC)C(F)(F)F)sc2c1 (stereo unspecified)	i	1.1	5.0%
COC(=O)NCC12CC3CC(C1)CC(CNC(=O)OC)(C3)C2	i	0.12	-3.6%
CC1CCN(S(=O)(=O)c2cccc(C(=O)O)c2)CC1	i	·	-5.7%
COCCn1c(SCC(=O)N2CCC(C)CC2)nc2ccccc2c1=O	i	1.2	0.2%
Cc1cc(C)nc(SCc2nnc(SCC(=O)Nc3nc(-c4ccccc4)cs3)n2-c2ccccc2)n1	i	·	-3.4%
COc1ccc(/C(O)=C2\C(=O)C(=O)N(c3cc(C)on3)C2c2ccccc2OC)cc1 (stereo unspecified)	i	-0.38	7.3%
CS(=O)(=O)N(CC(=O)Nc1cc(Cl)ccc1Cl)c1ccccc1	i	·	5.1%
CCCCN(CCCC)CCCNC(=O)CC1Oc2ccc(C)cc2NC1=O (stereo unspecified)	i	0.04	-6.7%
CC(=O)NC(CCS(C)(=O)=O)C(=O)Nc1ccc2c(c1)OCO2 (stereo unspecified)	i	1.2	2.9%
CCC(C)(C)NC(=O)C(c1cccc(OC)c1)N(C(=O)c1ccn[nH]1)c1cccc(OC)c1 (stereo unspecified)	i	0.8	-2.0%
O=C(CCCC(=O)Nc1cccnc1)Nc1cccnc1	i	-0.38	4.1%
COc1ccc(-c2noc(-c3cccc(OC)c3OC)n2)cc1OC	i	0.56	3.0%
Cc1ccc(N2C(=O)C3C(C2=O)C(C(=O)c2ccc(Cl)cc2)N2CCCC32)cc1 (stereo unspecified)	i	-1.1	14%
COC(=O)c1cc(C)nc(N)c1C#N	i	·	4.4%
COc1ccccc1NC(=O)CSc1nnnn1-c1ccc(C)cc1	i	·	1.5%
O=C1C2C3C=CC(C3)C2C(=O)N1c1n[nH]c(-c2cccnc2)n1 (stereo unspecified)	i	0.59	-3.0%
O=c1ccc(Oc2nc(N3CCCCC3)nc(N3CCCCC3)n2)n[nH]1	i	0.61	-1.3%
O=C(O)CCC(=O)Nc1ccc(N2CCOCC2)cc1	i	-0.41	-8.2%
O=C(Nc1ccc(S(=O)(=O)NC2CCCCC2)cc1)c1ccco1	i	·	2.2%
O=C(Nc1ccc(CN2CCOCC2)cc1)c1ccccc1F	i	·	0.7%
Cc1occc1-c1nnc(SCC(=O)c2c[nH]c3ccccc23)n1C	i	-0.03	2.9%
COc1cccc(NC(=O)CSc2nnc(Cc3cccs3)n2-c2ccc(C)cc2)c1	i	·	1.2%
CCC1(C)Cc2c(sc3nc(SC)nc(N)c23)CO1 (stereo unspecified)	i	·	4.9%
O=C(CCS(=O)(=O)c1ccc(Cl)cc1)OCC(=O)N1CCCCC1	i	0.49	-3.4%
COc1ccc(C2=NO[C@@H]3C(=O)N(c4cccc(C)c4C)C(=O)[C@H]23)cc1OC	i	1.3	-5.3%
Cc1cc(/C=C(\C#N)C(=O)NCc2cccs2)c(C)n1-c1ccc([N+](=O)[O-])cc1	i	·	-4.7%
O=C1CC(c2ccco2)CC2=C1C=Nc1ccccc1N2 (stereo unspecified)	i	-1	2.4%
CC(=O)OC(C(=O)NC1CCCCC1)c1cccc(C)c1 (stereo unspecified)	i	·	1.5%
CC(=Nc1cccc(C)c1)c1sc2ccccc2c1O	i	·	-12%
O=C(N1CCCC1)N1CCN(c2ncnc3c(-c4ccc(Cl)cc4)nsc23)CC1	i	0.76	-2.7%
O=C(O)c1ccn(Cn2cnc3ccccc32)n1	i	-0.96	-1.0%
COCCn1c(C)cc(C(=O)COC(=O)c2n[nH]c3ccccc23)c1C	+	-0.07	3.5%
Cc1cc(C(F)(F)F)nc(NCc2cccnc2)n1	i	0.94	-0.1%
CC(C)(C)n1ncc2c(=O)n(CC(=O)Nc3ccc(Cl)cc3)cnc21	i	-0.07	-0.9%
CC(C)Cn1c(N)c(C(=O)NCCN2CCOCC2)c2nc3ccccc3nc21	i	2.7	2.7%
OCc1ccccc1NC(=S)Nc1cccnc1	i	·	0.6%
COc1ccc(C(=O)NCC2OCCc3ccccc32)cc1 (stereo unspecified)	i	·	1.6%
COCCN(CC(=O)NCC1CCCO1)C(=O)CCC(=O)Nc1cc(C)on1 (stereo unspecified)	i	0.00099	1.4%
CCC(C(=O)NCc1ccco1)N(Cc1cccs1)C(=O)CNS(=O)(=O)c1ccccc1 (stereo unspecified)	i	·	0.8%
CCOC(=O)c1cnc(SCC(=O)NCc2cccs2)nc1N	i	-0.04	1.8%
Cc1ccc(NC(=O)Nc2cccs2)cc1	i	-0.21	-1.1%
Further compounds follow.
SMILES	MT1-MMP reporter	WNV NS2B-NS3 inh	Hsc70
COc1ccc(OC)c(S(=O)(=O)Nc2ccc(O)c(Sc3ncn[nH]3)c2)c1	i	0.64	2.4%
Cc1ccc(S(=O)(=O)c2c(C)nn(C(C)(C)C)c2OC(=O)c2ccc(Br)o2)cc1	i	-0.41	1.4%
CCCN1C(=O)C(O)(C/C(C)=N/O)c2ccccc21 (stereo unspecified)	i	-0.09	-6.0%
Cc1noc(C)c1S(=O)(=O)N1CCCCC1	i	·	-6.2%
Clc1ccc2[nH]c3c(NCC4CCCO4)ncnc3c2c1 (stereo unspecified)	i	0.22	-2.1%
O=C(c1ccccc1)N1CCCC(C(=O)N2CCCCCC2)C1 (stereo unspecified)	i	0.49	-0.3%
COc1cccc(-c2nn(C)c3sc(C(=O)N4CCN(c5ccccc5)CC4)cc23)c1	i	-0.13	-6.3%
O=C(NCc1ccccn1)C(F)(F)C(F)(F)C(=O)NCc1ccccn1	i	-1.1	9.0%
COc1cccc(C2=NOC(C(=O)N3CCN(c4ccccc4)CC3)C2)c1OC (stereo unspecified)	i	1.3	3.5%
CCOC(=O)c1ccc(N(CC(=O)NC2CCCC2)C(=O)CNC(=O)c2ccco2)cc1	i	-0.2	-6.0%
COC(=O)c1cccc(NC(=O)CSc2nc3cccnc3n2C)c1	i	0.16	-3.8%
CC(C)CC1(C(=O)O)NC(c2ccccc2O)C2C(=O)N(C(C)C)C(=O)C21 (stereo unspecified)	i	0.12	-2.2%
COc1ccc(CCNC(=O)c2cnn3cccnc23)cc1OC	i	-0.07	5.3%
O=C(c1cc2nc(-c3ccc(F)cc3)cc(C(F)(F)F)n2n1)N1CCOCC1	i	-0.26	2.0%
CC1=C(C#N)c2nc(N)c(C#N)c(C)c2/C1=C\c1ccc(C)cc1	i	·	1.6%
O=C(CS(=O)(=O)c1c[nH]c2ccccc12)Nc1ccc2c(c1)OCCO2	i	·	-6.1%
CC(C)C(=O)Nc1nnc(CSCc2ccccc2F)s1	i	·	1.4%
CCCC(=O)Nc1ccc(C(=O)NCCCn2ccnc2)cc1	i	0.55	3.2%
COc1ccc(S(=O)(=O)N[C@H](C(=O)O)C(C)C)cc1	i	-1.9	0.2%
CCOC(=O)N(CC)OC(=O)Nc1ccc(Cl)cc1	i	·	-2.4%

Exported with bars between the fields: entries from further up
SMILES | MT1-MMP reporter | WNV NS2B-NS3 inh | Hsc70
COc1ccc(S(=O)(=O)N[C@H](C(=O)O)C(C)C)cc1 | i | -1.9 | 0.2%
CCOC(=O)N(CC)OC(=O)Nc1ccc(Cl)cc1 | i | · | -2.4%

Some of the entries above, set out differently.
compound | MT1-MMP reporter | WNV NS2B-NS3 inh | Hsc70
O=C(O)c1ccn(Cn2cnc3ccccc32)n1 | i | -0.96 | -1.0%
COCCn1c(C)cc(C(=O)COC(=O)c2n[nH]c3ccccc23)c1C | + | -0.07 | 3.5%
Cc1cc(C(F)(F)F)nc(NCc2cccnc2)n1 | i | 0.94 | -0.1%
CC(C)(C)n1ncc2c(=O)n(CC(=O)Nc3ccc(Cl)cc3)cnc21 | i | -0.07 | -0.9%

More results follow:
SMILES	MT1-MMP reporter	WNV NS2B-NS3 inh	Hsc70
N#Cc1nc(COc2ccc(F)cc2)oc1N1CCC(Cc2ccccc2)CC1	i	-0.16	-1.2%
COc1cc(N(C)C)c(NC(C)=O)cc1C(=O)O	i	0.19	2.4%
CCOc1ccc(NC(=O)c2nnn(CC(=O)Nc3ccccc3OCC)c2N)cc1	i	-0.87	5.9%
Cc1nc(C)c(C(=O)C2=C(O)C(=O)N(CCN(C)C)C2c2ccccc2)s1 (stereo unspecified)	i	-1.4	-5.3%
Cc1ccc(S(=O)(=O)C2(C(=O)N3CCCCC3C)CC2)cc1 (stereo unspecified)	i	0.26	-4.8%
C[C@]12CCC(=O)C=C1CC[C@@H]1[C@@H]2C(=O)C[C@@]2(C)[C@H]1CC[C@]2(O)C(=O)CO	i	-0.03	2.0%
CCc1ccc(N2CC(C)Cn3c2nc2c3c(=O)n(CCN3CCOCC3)c(=O)n2C)cc1 (stereo unspecified)	i	0.14	-1.2%
CCC(CC)C1C(C#N)=C(N)Oc2n[nH]c(-c3ccccc3)c21 (stereo unspecified)	i	·	4.2%
CNC(=O)Nc1ccccc1F	i	·	0.3%
CCOc1ccc(-c2nc(-c3ccncc3)no2)cc1OCC	i	0.44	2.6%

A portion from further up, as a working copy:
SMILES	MT1-MMP reporter	WNV NS2B-NS3 inh	Hsc70
CCc1ccc(N2CC(C)Cn3c2nc2c3c(=O)n(CCN3CCOCC3)c(=O)n2C)cc1 (stereo unspecified)	i	0.14	-1.2%
CCC(CC)C1C(C#N)=C(N)Oc2n[nH]c(-c3ccccc3)c21 (stereo unspecified)	i	·	4.2%

More results:
SMILES	MT1-MMP reporter	WNV NS2B-NS3 inh	Hsc70
CCN(c1ccccc1)S(=O)(=O)c1ccc(OCc2c(C)noc2C)cc1	i	0.21	-1.1%
CCC(C)NC(=O)C1CCN(S(=O)(=O)N2CCCC2)CC1 (stereo unspecified)	i	-1.1	6.1%
CCn1c(SCC(=O)c2cc(OC)ccc2OC)nc2c1c(=O)n(C)c(=O)n2C	i	-0.17	1.4%
Cc1ccc(-c2c(C)n([O-])c3c([n+]2=O)CCCCC3)o1	i	0.83	1.6%
CCOC(=O)c1c(CC(C)C)csc1NC=O	i	-1	-4.8%
COc1ccc(CSCCN)cc1Cl	i	0.7	0.2%
CCN1CCN(C(=O)C2(NC(=O)Nc3ccccc3Cl)CCCCC2)CC1	i	·	-4.5%
COC(=O)c1cn(CCOc2ccc(C)cc2)c2ccccc12	i	·	-6.1%
Cc1c(OCc2nn[nH]n2)ccc2c3c(c(=O)oc12)CCC(C)C3 (stereo unspecified)	i	1.2	2.3%
COc1ccccc1OCC(=O)Nc1cccc(N(C)S(C)(=O)=O)c1	i	·	-1.8%
O=C(NC1CCCC1)NS(=O)(=O)c1ccccc1Cl	i	1.7	0.1%
COc1ccc(OC)c(S(=O)(=O)N(C)CC(=O)N2CCN(c3ccccc3F)CC2)c1	i	-1.4	-5.4%
COc1ccc(C(=O)CSC2=C(C#N)C3(CCCCC3)C(C#N)=C(N)N2)cc1	i	-0.38	1.1%
COc1cc(-c2nnc(SCC(=O)N(Cc3ccccc3)C(C)(C)C)o2)cc(OC)c1OC	i	0.21	-4.5%
Cc1[nH]c2ccccc2c1C(=O)COC(=O)C1CC(=O)N(Cc2ccco2)C1 (stereo unspecified)	i	-0.51	1.0%
CCCNC(=O)CN(CCc1ccccc1)S(C)(=O)=O	i	·	2.4%
COCCn1c(Cc2ccccc2)nnc1SCC(=O)Nc1cc(C)on1	i	-0.56	-3.7%
CC1CCc2ccc(F)cc2N1S(=O)(=O)c1cccs1 (stereo unspecified)	i	-0.11	-17%
CCn1c(CNC(=O)Cc2ccc(OC)cc2)nnc1SCC(=O)Nc1nccs1	i	-0.7	-3.3%
CCCn1c(SCC(=O)Nc2cccc(C(=O)OCC)c2)nnc1-c1ccoc1C	i	-2.1	-2.9%
CCOC(=O)c1ccc(-n2ncc(C(=O)OCC)c2N)cc1	i	0.73	-1.6%
CCN(CC)S(=O)(=O)c1ccc(Cl)c(C(=O)OC)c1	i	0.06	-7.9%
Cc1cc(C)c(S(=O)(=O)N(CC(=O)N2CCCC2)C2CCCCC2)c(C)c1	i	-0.18	-4.4%
COc1cc2c(cc1NC(=O)CN1CCN(S(=O)(=O)c3ccccc3F)CC1)oc1ccccc12	i	·	-3.1%
Cn1nnnc1SCc1ccccc1F	i	-0.69	-4.0%
c1ccc(NCCCNc2ccccc2)cc1	i	0.0085	-2.3%
Cc1n[nH]c(C)c1S(=O)(=O)N1CCCC(C(=O)NC2CCCCC2)C1 (stereo unspecified)	i	-0.01	-0.5%
OCCNc1nc(OCC(F)(F)F)nc(N2CCN(C34CC5CC(CC(C5)C3)C4)CC2)n1	i	-0.47	0.3%
